gsp ag = gsp mutant agonism | gsp mutant cells, cAMP HTRF, 30 min; control for the full effect not named in the record | Potency, µM (series often up to 76.9 µM), inactives show at the top dose activation (cAMP increase), most hits filed as activators | 0.13% of 340,000 active; active = well fitted activation curve with a large enough effect; inconclusive = small, poorly fitted or top-dose-only effect, or another doubt; inactive = no such curve, though single readings can be large or run the other way; cell line not stated here;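 also: phosphodiesterase inhibitor Ro 20-1724 added with compounds to block cAMP breakdown; potency is read from the fitted curve at half-maximal effect; nearly all actives have a fitted effect of over 60% in size; about a fifth of the inactives were tested at one dose only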
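Cells stably selected in G418 were plated at 2000/well, grown 16-24 hr, then given compounds in DMSO with the PDE inhibitor […] (300 uM solution added) for 30 min at 37C; cAMP was read by HTRF.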
Menin MLL FP FL = inhibitors of human menin-MLL interaction, wild-type MLL peptide; Fluorescence polarization, fluorescein-MLL peptide displacement from menin; FP activity change, % at 61.4 µM; 290,000 tested, under 10 active; inconclusive = falling polarisation curve, or a change in total fluorescence; inactive = total fluorescence flat and polarisation flat or rising; no compound was filed as active; the % refers to the polarisation; negative = inhibition;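 also: % of control where 0% means no effect; inhibitors lower the polarisation; unlabelled MLL peptide was the positive control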
ClpP mod = qHTS Assay for Activators of ClpP; ATP-dependent Clp protease proteolytic subunit (Bacillus subtilis (strain 168)), P80244; purified B. subtilis ClpP, FRET peptide cleavage, 20 min; Potency, µM (top dose mostly 57.5 µM), for the others: top-dose activity change, negative = active; 1.9% of 340,000 active; active = well fitted falling curve with a large enough effect; inconclusive = small, poorly fitted or top-dose-only effect; inactive = no such curve, though single readings can be large or run the other way; also: potency is read from the fitted curve at half-maximal effect; the source files actives as falling curves though it sought activators and does not explain the sign; nearly all actives have a fitted effect of over 65% in size; many hits overshoot -100%
Target sequence (P80244 whole entry, looked up): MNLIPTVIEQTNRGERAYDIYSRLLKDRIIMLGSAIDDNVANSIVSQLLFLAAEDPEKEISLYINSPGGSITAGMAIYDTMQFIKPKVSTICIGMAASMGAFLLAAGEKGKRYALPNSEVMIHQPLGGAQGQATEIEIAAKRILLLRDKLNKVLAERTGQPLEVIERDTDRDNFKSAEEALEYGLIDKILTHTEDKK
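ClpP 10 microg/mL final, pH 8 Tris/KCl buffer with BSA, glycerol, Tween-20; compound pinned in; FRET-FV substrate; RT 20 min; Ex320/Em430; ΔFRET vs ADEP 5.8 microM, DMSO, no enzyme.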
TRPML1 inh = blocks the human TRPML1 channel | TRPML1-inducible cells, Ca2+ dye fluorescence, FDSS; active compounds read low; inhibition of EC80 agonist-evoked calcium signal | Q9GZU1 | activity change, negative = inhibition, % (no concentration beside the values) | 0.02% of 390,000 active; in the data active means activity change below about -50%; inconclusive means about -30% to -50%; inactive means above about -30%;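 also: stimulus is agonist 54-4 at its EC80 concentration; % is scaled to controls: 0 for no effect and ±100 for the full control effect; compound concentration not given in the record; the text of the record puts the active cut at -80%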
Target sequence (Q9GZU1 whole entry, looked up): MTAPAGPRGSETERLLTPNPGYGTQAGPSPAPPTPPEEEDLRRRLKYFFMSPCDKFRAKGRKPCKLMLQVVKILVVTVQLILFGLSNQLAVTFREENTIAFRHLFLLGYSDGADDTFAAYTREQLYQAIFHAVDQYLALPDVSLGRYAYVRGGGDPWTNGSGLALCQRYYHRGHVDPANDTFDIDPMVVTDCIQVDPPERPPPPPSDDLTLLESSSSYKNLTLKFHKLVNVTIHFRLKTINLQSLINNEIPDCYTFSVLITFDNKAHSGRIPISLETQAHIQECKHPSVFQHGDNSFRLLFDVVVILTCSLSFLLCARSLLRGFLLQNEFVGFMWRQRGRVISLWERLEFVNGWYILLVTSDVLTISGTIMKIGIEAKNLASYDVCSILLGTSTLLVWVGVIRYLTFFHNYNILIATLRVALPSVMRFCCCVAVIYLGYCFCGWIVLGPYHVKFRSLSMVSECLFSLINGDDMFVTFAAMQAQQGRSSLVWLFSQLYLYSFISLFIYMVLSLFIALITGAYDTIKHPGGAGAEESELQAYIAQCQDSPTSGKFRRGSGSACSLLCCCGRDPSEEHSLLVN
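TRPML1-DL cells, Tet-induced overnight (~16 h, 37 °C) at 1,500 cells/well, were loaded with Ca8 no-wash dye plus quencher for 45-90 min at room temperature. Compounds were pinned during FDSS kinetic reading; agonist 54-4 at EC80 (4 uM final) then added.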
gsp antagonist = antagonizes gsp, the McCune-Albright syndrome mutation. gsp-mutant cells, cAMP HTRF, 30 min; control for the full effect not named in the record. Potency, µM (titrated, usually from 76.9 µM), without a hit: at the highest dose activity change, negative = inhibition, actives largely listed as inhibitors. 0.4% of 340,000 active. AID 624288; active = falling curve of any shape with a large fitted effect; inconclusive = falling curve, mostly with a smaller effect; inactive = flat or rising curve; cell line not stated here;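 also: intracellular cAMP measured with PDE inhibitor Ro 20-1724 present during compound exposure; potency is read from the fitted curve at half-maximal effect; % is scaled to controls: 0 for no effect and ±100 for the full control effect; nearly all actives have a fitted effect of over 65% in size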
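Cells in G418 medium, seeded 16-24 h, 37C; buffer exchange to DPBS + 1 mM CaCl2, 0.5 mM MgCl2, 0.05% BSA; cpds in DMSO + […] (300 uM stock), 30 min 37C; HTRF cAMP detection.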
TRPML1 ag = agonists of human TRPML1 channel; AID 624414; activation, % (no concentration beside the values); TRPML1-expressing cells, Ca2+ dye fluorescence, FDSS; host cell line not named in the record; reference of the full effect not given here; 0.12% of 410,000 active; in the data active = activation above about 50%; inconclusive = about 30% to 50%; inactive = below about 30%; also: 0% is about no effect; the text of the record puts the active cut at 80%
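Kinetic FDSS Ca2+ read in Tet-induced TRPML1-DL cells (ABD Ca8 dye plus quencher, 45-90 min RT loading): baseline, then compound, then 110 s agonist window; EC80 agonist 54-4 at 4uM final added afterwards for a 110 s antagonist window.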
* = called active by the depositor; ? = inconclusive; nt = no result given; & = joins results of further samples; [ ] = remark or other dose.

SMILES | gsp ag | Menin MLL FP FL | ClpP mod | TRPML1 inh | gsp antagonist | TRPML1 ag
NS(=O)(=O)c1ccc(NC(=S)NC(=O)c2cccc(Br)c2)cc1 | 9%[15.4 µM] | -3.1 | nt | 10 | -7% | -0.6
COc1ccc(C2/C=C\CN(C(=O)NC(C)C)CC(=O)N2Cc2ccc(F)cc2)cc1 (configuration not stated) | -28% | 2.9&-6.9 | -1.3% | -8&-14 | 6% | 0.6&-0.3
Cc1ccc(C(=O)NCCNC(=O)CN2CCOCC2)cc1 | -71%[inhibitor] | -6.4 | ? | 10 | 8% | 1.5
CCC(COC)NC(=O)c1ccc(OC)c(OC2CCN(C(C)=O)CC2)c1 (configuration not stated) | 28% | -3.3 | 2.5% | 5 | 3% | 0.4
Cc1ccc(N2CC(=O)N(NC(=O)Nc3ccc(Cl)c(Cl)c3)CC2=O)cc1 | -3%[15.4 µM] | -1.6 | -0.2% | 9 | 4% | 0.6
Cc1sc(NC(=O)CSc2nnc(CCNC(=O)c3cccs3)n2C)nc1-c1ccccc1 | 0% | 1.7 | 0.6% | 8 | ? | 2.3
COc1cc(C(=O)Nn2c(O)c(C3=c4ccccc4=NC3=O)sc2=S)ccc1O | 12% | 6.1 | 60% | 2 | -22% | -0.2
COc1ccc(C(=O)c2c(N)c(C(=O)Nc3ccccc3Cl)c3ccccn23)cc1 | nt | nt | -29% | 29 | nt | 4.3
Cc1cccc(-n2c(SCCC(=O)O)nnc2-c2cccs2)c1C | 11% | -1.3 | ? | 21 | -1%[15.4 µM] | 1.1
CCCN1CCN(C(=O)c2c(Cl)cnn2C)CC1 | ? | nt | -1.4% | 0 | 16% | 1.1
O=C(Nc1ccc2[nH]c(=S)sc2c1)Nc1ccccc1F | 6% | 8.0 | 1.7% | 14 | -2% | 1.4
CCOC(=O)Cc1csc(NC(=O)CSc2nnc(C(C)C)n2CC)n1 | 7% | 3.8 | 0.7% | 23 | 2% | -0.6
C=CCN1C(=O)C(CC(=O)Nc2ccc(C)cc2)SC1=Nc1c(C)n(C)n(-c2ccccc2)c1=O (configuration not stated) | -36%[inhibitor] | 1.6 | -0.7% | -5 | 1% | 0.1
CCN(CC)c1ccc(NC(=O)CN2CCN(c3ccccc3OC)CC2)cc1 | nt | nt | 1.1% | -3 | nt | 0.8
C=CCNC(=O)c1ccccc1NC(=O)C1CCN(S(=O)(=O)c2ccc(SC)cc2)CC1 | -1%[15.4 µM] | -3.7 | nt | 19 | -24% | 0.3
O=C(N[C@@H]1C/C=C\C[C@H](CC(=O)N(CCO)Cc2ccccc2)C(=O)N[C@@H](Cc2ccccc2)COC1=O)OCC1c2ccccc2-c2ccccc21 | -14% | nt | -3.4% | -4 | -7% | 0.1
CC(=O)Nc1ccc(S(=O)(=O)NCCc2cn3ccsc3n2)cc1 | nt | nt | -7.0% | 33 | nt | -0.1
CCCC(=O)Oc1c(Sc2ccc(C)cc2)c(C)nn1-c1ccccc1 | nt | nt | -3.0% | 7 | nt | -0.7
Cc1onc(-c2ccccc2Cl)c1C(=O)Oc1cc(N)n(S(=O)(=O)c2ccc(F)cc2)n1 | -14% | 1.0 | 0.3% | 18 | -18% | 0.9
O=C1NC(=O)/C(=C/c2ccccn2)S1 | 2%[15.4 µM] | 0.1 | nt | -17 | -14% | 0.6
CC(C)[C@H](NC(=O)OCc1ccccc1)C(=O)N[C@@H](Cc1c[nH]c2ccccc12)C(=O)O | 14% | nt | -1.8% | -8 | 3% | -0.7
COc1cccc(NC(=O)C2CCCN2S(=O)(=O)c2ccc3nc(-c4ccccc4)[nH]c3c2)c1 (configuration not stated) | nt | nt | 4.3% | -2 | nt | 2.2
O=C(C1CCCO1)N1CCN(S(=O)(=O)c2ccc(Br)cc2)CC1 (configuration not stated) | 0% | nt | -3.0% | 6 | 7% | 0.8
CCOC(=O)N/N=C\c1ccc(C)s1 | -58%[inhibitor] | -1.1 | -1.5% | 1 | -3% | -0.2
Cc1nc2ccc(NC(=O)c3ccc(=O)[nH]c3)cc2s1 | 2% | -9.7 | nt | 29 | 4% | 0.1
Cc1nc2cc(NC(=O)c3ccc(Cl)cc3)ccc2n1C | -5% | -0.1 | 0.4% | -7 | 0% | 0.2
Cc1ccccc1NC(=O)c1c(C)oc2ccc(O)c(CN3CCCCCC3)c12 | nt | nt | -8.3% | 22 | nt | -0.9
Cc1nc2c(-c3ccccc3)c(C)[nH]n2c(=O)c1Cc1ccc(C(C)C)cc1 | nt | nt | ? | 3 | nt | -0.2
O=C(Nc1ccc(-c2noc(CCc3ccccc3)n2)cc1)c1cccnc1 | 18% | 4.9 | -7.3% | -19 | ? | 0.8
FC(F)(F)c1cccc(CNC(=S)Nc2ccccc2)c1 | 0%[15.4 µM] | -2.3 | nt | 11 | 5% | 2.3
COc1ccc(-c2[nH]ncc2CNCc2cc(C)n(C)n2)c(F)c1 | ? | 1.8 | ? | -2 | -3% | 0.3
CN1CC(c2ccccc2)Oc2ccccc2C1=S (configuration not stated) | -21% | nt | 2.3% | -1 | -10% | 1.6
CN(C)S(=O)(=O)c1ccc(NC(=O)CSc2ncnc3ccccc23)cc1 | -2%[15.4 µM] | 10 | ? | 6 | -3% | -1.2
Cc1cccc(NC(=O)c2ccc(OCc3c(C)noc3C)cc2)c1C | 0%[15.4 µM] | nt | -1.9% | 1 | 7% | 0.1
CC1=NN(C(=O)Cn2nc([N+](=O)[O-])cc2C)C(O)(C(F)(F)F)C1 (configuration not stated) | -16% | 2.5 | ? | 30 | 12% | 1.0
CC(C)(C)NC(=O)CN(C(=O)CNC(=O)c1cccs1)c1ccc2c(c1)OCCO2 | -20% | 3.7 | 0.1% | -15 | 5% | 0.5
Cn1c(SCC(=O)c2ccc(F)cc2)nnc1-c1ccccc1Br | nt | nt | 1.9% | 17 | nt | 3.7
CC(=O)c1c(C)[nH]c(C(=O)NCCCN2CCCC2)c1C | -6% | 0.7 | 0.6% | -14 | 0% | -0.1
S=C1NC2(CCCCC2)Cc2ccccc21 | 13%[15.4 µM] | 2.2 | -2.5% | 9 | -5% | 0.8
O=C1Nc2c(c(=O)[nH]c(=O)n2-c2ccc(F)cc2)C1(NS(=O)(=O)c1ccccc1)C(F)(F)F (configuration not stated) | -10%[15.4 µM] | 0.6 | nt | 8 | 4% | -0.7
O=C1CC(N2CCN(S(=O)(=O)c3ccccc3)CC2)C(=O)N1c1ccccc1 (configuration not stated) | -14% | 0.7 | 1.3% | -6 | 7% | -0.7
Cc1ccc(NC(=O)Cn2cc3c(n2)CCC(C)C3)cc1C (configuration not stated) | nt | nt | -0.9% | -9 | nt | -1.1
COC(=O)[C@H](CC(C)C)NC(=O)NC1CCCCC1C (some centres not stated) | 3% | -0.1 | -0.6% | -14 | -7% | -0.9
COc1ccc(CNC(=S)Nc2ccc(F)c(Cl)c2)cc1OC | 0%[15.4 µM] | 1.1 | nt | 6 | nt | 0.8
Clc1ccc(OCCn2cnc3ccccc32)cc1 | 3% | 4.7 | -1.0% | -5 | 7% | -0.9
O=C(CN1CCC(n2nnc3cc(F)ccc32)CC1)Nc1ccccc1N1CCOCC1 | -64% | -0.5 | 0.6% | -9 | -20% | 2.5
Cc1cc(C)c2cc3c(N)c(C(=O)N4CCOCC4)sc3nc2c1 | 0%[15.4 µM] | -1.5 | nt | -6 | 4% | 0.2
N/C(=N\OC(=O)c1cccc(Br)c1)c1ccncc1 | 8%[15.4 µM] | 2.1 | nt | -15 | -13% | 0.4
COCCCNC(=O)C(=O)NCC1CCCN1S(=O)(=O)c1cccs1 (configuration not stated) | -5%[15.4 µM] | nt | nt | 7 | 3% | 0.0
Cc1ccc(S(=O)(=O)Nc2cc(-c3ccc(Cl)cc3)nn2C)cc1 | -19% | 1.0 | 2.9% | -17 | -7% | 0.4
COC(=O)c1cc2sc(C)cc2n1CC(=O)Nc1ccc(C)c(C)c1 | nt | nt | 0.2% | -18 | nt | 0.1
O=C(COc1ccccc1)NC(=S)Nc1ccc2c3c(cccc13)CC2 | 35µM* | 3.6 | 6.5% | 0 | 4% | 0.0
CNC(=O)c1ccc(CNC(=O)OCc2ccccc2)cc1 | -35%[inhibitor] | -1.6 | -2.0% | -5 | -13% | 0.0
O=C1CCCN1CCCNC(=S)Nc1ccc(Nc2ccccc2)cc1 | -1%[15.4 µM] | 5.5 | nt | -16 | -6% | -0.1
Cc1cccc(NS(=O)(=O)c2ccc(-c3cnc(C4CC4)o3)cc2)c1C | ? | nt | -29% | 5 | 7% | -0.4
O=C1OC(O)c2cccc3cccc1c23 (configuration not stated) | -23% | nt | ? | 10 | nt | 0.0
CN(c1cccc(Cl)c1)S(=O)(=O)c1cccc(C(=O)NCc2ccncc2)c1 | 27% | nt | -4.6% | -5 | -9% | -0.4
C/C(N)=C(/C#N)C(=O)CSc1nnc(-c2ccccc2)n1C | 5%[15.4 µM] | -0.2 | nt | 34 | 10% | -0.1
CCOc1ccc(NC(=S)Nc2ccc3nsnc3c2)cc1 | 8% | nt | 1.6% | -6 | -6% | 3.9
O=C(Oc1cccnc1)c1ccc([N+](=O)[O-])cc1 | 5%[15.4 µM] | -1.7 | nt | -6 | 10% | -0.6

Next section
SMILES | gsp ag | Menin MLL FP FL | ClpP mod | TRPML1 inh | gsp antagonist | TRPML1 ag
Cc1c(NC(=S)N/N=C/C=C/c2ccc([N+](=O)[O-])cc2)c(=O)n(-c2ccccc2)n1C | -44%[inhibitor] | -2.1 | 3.1% | -12 | -13% | -0.4
CC(C)CN(CC(C)C)CC(O)Cn1cc(/C=C/C(=O)c2ccccc2)c2ccccc21 (configuration not stated) | nt | nt | -1.0% | 10 | nt | 0.7
COc1cc(-c2noc(C)c2C(=O)NCCCN2CCOCC2)cc(OC)c1OC | nt | nt | -3.6% | 5 | 4% | -0.5
COc1ccc(-c2cc(-c3c(O)c(OC)c4occc4c3OC)[nH]n2)cc1OC | 19% | 1.4 | 0.0% | 22 | 6% | 2.2
CCCCOCCCNC(=O)N[C@H](C(=O)OC)C(C)CC (some centres not stated) | -2%[15.4 µM] | 0.5 | -6.3% | 4 | -3% | -0.5

Single records, as listed above.
`COc1cc(-c2noc(C)c2C(=O)NCCCN2CCOCC2)cc(OC)c1OC` in the list: gsp ag: nt; Menin MLL FP FL: nt; ClpP mod: -3.6%; TRPML1 inh: 5; gsp antagonist: 4%; TRPML1 ag: -0.5
`COc1ccc(-c2cc(-c3c(O)c(OC)c4occc4c3OC)[nH]n2)cc1OC` in the list: gsp ag: 19%; Menin MLL FP FL: 1.4; ClpP mod: 0.0%; TRPML1 inh: 22; gsp antagonist: 6%; TRPML1 ag: 2.2

Screens as filed in PubChem.
